Screens deposited in PubChem by National Center for Advancing Translational Sciences (NCATS).
PINK1 modulator: PINK1 expression modulation. Potency, µM (titrated, usually from 76.6 µM), without a hit: at the highest dose activation (PINK1 increase), hits mostly activators. PINK1 immunofluorescence, high-content cytometry, 24 h. 410,000 tested, 0.2% active; active = well fitted activation curve with a large enough effect; inconclusive = small, poorly fitted or top-dose-only effect; inactive = flat fitted curve, though single readings scatter; cell line not stated here;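 further: potency means the concentration at half of the fitted maximal effect; % of control where 0% means no effect; nearly all actives have a fitted effect of over 65% in size; a mitochondrial uncoupler was the plate control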
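A stable cell line was treated with compounds at 5 concentrations for 24 hours, with CCCP as control. PINK1 levels and mitochondrial localization were measured by immunofluorescence with mitochondrial, cell and nuclear markers after fixation, read by laser-scanning cytometry.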
D2 potentiator: human D2 receptor positive allosteric modulation | P14416 | DiscoveRx D2 beta-arrestin cells, luminescence, 90 min; 100% = 57 uM dopamine signal | potentiation, % (test concentration not listed) | 360,000 tested, 0.23% active | AID 624464; active = potentiation of 50% or more; inconclusive = 30% to 50%; inactive = 30% or less;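 further: compound concentration not given in the record; tested on top of an EC20 dose of dopamine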
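D2 cells co-treated with compound plus 50 nM dopamine (EC20) for 90 min at 37 deg C to detect potentiation. Beta-arrestin recruitment was read as enzyme-fragment luminescence after 1 h at ambient temperature. Full response was set by 57 uM dopamine.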
D2 ag: human D2 receptor agonism in beta-arrestin assay. activation, % (concentration not given with the values). 360,000 tested, 0.084% active. DiscoveRx PathHunter D2 beta-arrestin, luminescence, 90 min; 100% = 57 uM dopamine signal; in the data active = activation above about 40%; inconclusive = about 15% to 40%; inactive = below about 15%; further: compound concentration not given in the record; the text of the record calls up to 30% inactive
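DiscoveRx PathHunter D2 beta-arrestin cells (2,100/well) attached overnight, then compound-stimulated 90 min at 37 C in HBSS/10 mM HEPES/0.1% Tween-20 buffer; beta-galactosidase complementation read by luminescence after 1 h at ambient temperature. Dopamine 57 uM final (EC100) as control.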
Six1-Eya2 blk: blocks human Six1 binding to Eya2; Q15475+O00167; AlphaScreen GST-Six1/His-Eya2 binding, biochemical; hits give low values; control for the full effect not named in the record; activity change, % (concentration not given with the values); 360,000 tested, 0.56% active; in the data active = activity change below about -65%; inconclusive = about -30% to -65%; inactive = above about -30%; further: on the % scale 0 is the no-effect control and ±100 the full control effect
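Homogeneous AlphaScreen proximity assay pairing GST-Six1 with His-tagged Eya2 (added as 5X mix: 250 nM and 500 nM) in 50 mM Tris pH 8.0, 300 mM NaCl, 1 mM TCEP. Glutathione donor and nickel acceptor beads; 1 h, 37 °C, dark.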
Sfp PPTase inh: Sfp phosphopantetheinyl transferase inhibition; Biochemical Sfp PPTase activity, qHTS; 310,000 tested, 3.5% active; Potency, µM, inactives show max response, negative = inhibition, usual class: inhibitors; active means well fitted inhibition curve with a large enough effect; inconclusive means small, poorly fitted or top-dose-only effect, or another doubt; inactive means no such curve, though single readings can be large or run the other way;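 further: the enzyme is Sfp with the accession as filed and its product quenches rhodamine fluorescence; potency means the concentration at half of the fitted maximal effect; 0% = enzyme reaction without inhibitor and -100% = no enzyme wells; top concentration of the series not given in the record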
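Step 1, compound plus 15 nM Sfp-PPTase, 15 min, room temperature. Step 2, add rhodamine-CoA (5 uM) and BHQ-2-YbbR (12.5 uM). Step 3, read 525/598 nm fluorescence at 0 and 30 min.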
CtBP-E1A inh: inhibitors of CtBP/E1A interaction | activity change, % (no concentration beside the values) | AID 651724 | AlphaScreen GST-E1A/His-CtBP binding, 1536-well; hits give low values; control for the full effect not named in the record | 340,000 tested, 0.49% active; in the data active means activity change below about -65%; inconclusive means about -30% to -65%; inactive means above about -30%; further: on the % scale 0 is the no-effect control and ±100 the full control effect; compound concentration not given in the record
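Steps: dispense buffer (Tris pH 8.0, NaCl 300 mM, TCEP 1 mM, BSA, Tween 20); add 5X protein mix (GST-E1A, His-CtBP, 125 nM each); pin 23 nL compound; 2 h at 37 °C, dark; add 5X beads (50 ug/mL); 1 h; read.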
TRPV1 potentiator: potentiators of human vanilloid receptor 1 (TRPV1). AID 540277. potentiation, % at 8.33 µM. Q8NER1. TRPV1-expressing cells, Fluo-8 calcium influx, capsaicin EC20 potentiation; host cell line not named in the record; control for the full effect not named in the record. 320,000 tested, 0.02% active; active means potentiation above 80%; inconclusive means 30% to 80%; inactive means below 30%; further: 0% is about no effect
Target sequence (Q8NER1 whole entry, looked up): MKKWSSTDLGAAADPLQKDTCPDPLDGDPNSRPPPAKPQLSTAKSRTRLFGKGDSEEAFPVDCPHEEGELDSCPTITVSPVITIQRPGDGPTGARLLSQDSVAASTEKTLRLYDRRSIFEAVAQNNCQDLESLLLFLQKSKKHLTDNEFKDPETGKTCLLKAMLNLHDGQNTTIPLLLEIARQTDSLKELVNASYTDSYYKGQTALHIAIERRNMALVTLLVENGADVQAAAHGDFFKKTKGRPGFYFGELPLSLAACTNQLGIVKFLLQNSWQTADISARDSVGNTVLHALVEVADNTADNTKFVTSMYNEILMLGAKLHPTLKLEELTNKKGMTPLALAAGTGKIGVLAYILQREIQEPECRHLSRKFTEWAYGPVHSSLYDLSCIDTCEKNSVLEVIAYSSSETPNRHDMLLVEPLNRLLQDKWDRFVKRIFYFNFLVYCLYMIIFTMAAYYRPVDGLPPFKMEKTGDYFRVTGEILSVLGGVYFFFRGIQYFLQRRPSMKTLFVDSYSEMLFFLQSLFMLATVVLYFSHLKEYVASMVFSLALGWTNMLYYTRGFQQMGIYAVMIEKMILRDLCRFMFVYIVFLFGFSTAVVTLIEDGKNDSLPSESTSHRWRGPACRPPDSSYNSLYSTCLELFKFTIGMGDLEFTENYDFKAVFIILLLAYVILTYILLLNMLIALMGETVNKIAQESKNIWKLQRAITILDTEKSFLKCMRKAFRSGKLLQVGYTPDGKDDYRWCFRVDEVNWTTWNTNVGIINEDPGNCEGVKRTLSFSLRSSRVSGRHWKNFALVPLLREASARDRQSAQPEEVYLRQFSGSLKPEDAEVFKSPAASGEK
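Fluo-8 calcium influx in TRPV1-expressing cells, kinetic read (ex 480/em 520 nm). Compound added and read 3 min for agonist activity, followed by capsaicin at EC20 final and 2 min further read for enhancement.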
* = called active by the depositor; ? = inconclusive; · = not tested or not shown; & = joins results of further samples; [ ] = dose if it differs, or a comment.

SMILES	PINK1 modulator	D2 potentiator	D2 ag	Six1-Eya2 blk	Sfp PPTase inh	CtBP-E1A inh	TRPV1 potentiator
COc1ccc(CN2CCN(C(=O)C3CC(=O)N(C4CCCCCC4)C3)CC2)c(OC)c1OC (stereo unspecified)	2.8%	-11	-0.7	13	11%	-3	-5
CCOc1ccccc1N1CCN(C(=O)c2cccc(S(=O)(=O)N3CCOCC3)c2)CC1	0.8%	-9	-0.6	0	·	32	?
CC(=O)c1cccc(NC(=O)C2CCCN2S(=O)(=O)c2cccs2)c1 (stereo unspecified)	0.6%	-22	-1.6	7	·	-1	·
CC1CCc2sc3nc(NCc4ccco4)n4ncnc4c3c2C1 (stereo unspecified)	1.8%	2	0.2	-17	-24%	-14	?
Cc1ccc(CCCOC(=O)CN2CCCCC2)cc1	6.0%	-8	-0.2	1	-4%	14	-14
O=C(Nc1ccc(Cl)c(Cl)c1)Nc1nnc(CC2=CCCCC2)s1	?	0	-1.6	6	20%	9	3
O=C(CNC(=O)c1ccccc1)N/N=C/c1ccc([N+](=O)[O-])s1	?	3	5.2	-2	2%	-21	0
CC(=O)c1ccc(-c2ccc([C@H]3[C@@H]4C=CCC[C@@]4(C)C(=O)N3Cc3ccccc3)c(F)c2)cc1	18%	-14	-3.0	-7	?	-12	-6
COc1ccc(C(=O)NNC(=O)CCn2nnc(-c3ccc(Cl)cc3)n2)cc1OC	-0.2%	4	-0.9	18	14%	15	8
COc1ccccc1CNC(=O)Cc1ccccc1	0.6%	-12	0.1	3	11%	1	-7
O=C(NCCCCc1ccccc1)c1ccc(Br)cc1	1.8%	-3	-0.8	21	9%	·	3
CCCC(=NCc1ccccc1)C1=C(O)C(C(=O)OC)C(C)(C)CC1=O (stereo unspecified)	-1.3%[38.3 µM]	-1	-2.9	-2	1%	2	0
CC(=O)Nc1cccc(C(=O)OCC(=O)NC(C)c2ccc(F)cc2)c1 (stereo unspecified)	3.1%	-10	1.2	4	16%	-12	-2
COc1ccc(-c2nc3nc(C)cc(=O)n3[nH]2)cc1	·	10	0.9	5	12%	1	-1
Clc1ccc(-c2csc(N/N=C/c3cccnc3)n2)c(Cl)c1	3.4%	3	6.3	6	?	-2	-2
O=C(OCc1ccccc1)N1C=CC2CC1c1c(Cl)cccc12 (stereo unspecified)	7.7%	-6	-1.8	18	·	22	·
Cc1ccc2oc3nc(C)c(C(=O)Nc4cccc(C(F)(F)F)c4)cc3c(=O)c2c1	6.9%	-8	-2.3	1	7%	-9	-6
COc1ccccc1OCCCN1CCC(C(O)(c2ccccc2)c2ccccc2)CC1	0.9%	·	·	-12	·	2	·
Cc1nn(C)cc1CNC(=O)Nc1cccc(Cl)c1	1.5%	-1	-1.1	5	-3%	8	-2
Cc1ccc(C)c(C2=CSC3=NCCN23)c1	0.1%	-1	-1.8	25	-6%	0	8

One compound at a time (already shown). Order of screens: PINK1 modulator, D2 potentiator, D2 ag, Six1-Eya2 blk, Sfp PPTase inh, CtBP-E1A inh, TRPV1 potentiator
CCCC(=NCc1ccccc1)C1=C(O)C(C(=O)OC)C(C)(C)CC1=O (stereo unspecified) is entered as -1.3%[38.3 µM], -1, -2.9, -2, 1%, 2, 0
O=C(NCCCCc1ccccc1)c1ccc(Br)cc1 is entered as 1.8%, -3, -0.8, 21, 9%, ·, 3

Continuation.
SMILES	PINK1 modulator	D2 potentiator	D2 ag	Six1-Eya2 blk	Sfp PPTase inh	CtBP-E1A inh	TRPV1 potentiator
COc1ccc(NC(=O)Cc2nnc(SCC(=O)c3ccc(F)cc3)n2C)cc1	2.4%	-7	-4.1	7	5%	-2	22
CCc1nnc(NC(=O)OCc2ccccc2)s1	0.5%[38.3 µM]	0	1.9	7	-4%	7	5
O=C(NC1CCCC1)C(c1cc2c(cc1[N+](=O)[O-])OCO2)N1CCCC1 (stereo unspecified)	0.6%	1	1.7	-1	-6%	7	7
CN(/N=C/c1ccccc1)C(=S)c1ccccc1	1.4%	-19	-4.2	-15	·	·	·
COc1ccc(C)cc1NC(=O)CN(Cc1nnc(-c2ccc(Cl)cc2)o1)C1CCCC1	3.0%	-31	-3.1	0	-16%	-1	-10
Cc1cccc(-n2nnnc2SCC(=O)c2cc(C)n(Cc3ccco3)c2C)c1	-3.0%	4	-2.6	-6	?	1	-22
CC1(C)NC(=O)N(CCOCCOc2ccccc2)C1=O	-0.5%	-6	-3.1	-1	9%	0	3
Cc1ccc(C)c(SCC(=O)NNC(=O)c2csc(N3CCOCC3)n2)c1	-0.2%	-13	-0.5	3	28%	5	5
CCCN(CC(=O)Nc1ccccc1C)C(=O)C1CCN(S(=O)(=O)c2ccccc2C(F)(F)F)CC1	0.2%	-8	0.3	-2	·	-4	29
Cc1ccc(NC(=O)CSc2nc3[nH]ncc3c(=O)[nH]2)cc1	1.6%	-8	-1.0	-2	17%	-5	12
Cc1ccc(/C=N/n2c(-c3cccc(Cl)c3)n[nH]c2=S)o1	-1.0%	-17	2.0	-7	-8%	-11	1
O=C(Cn1c(=O)oc2cc(S(=O)(=O)N3CCCC3)ccc21)Nc1ccccc1Br	-2.1%	-3	-1.7	-1	27%	3	25
COc1ccc(-c2ccccc2)cc1NCc1ccccc1C	8.2%	25	1.1	-2	-20%	-22	-4
CCCC(=O)c1ccc(N2CCCCC2)c(F)c1	2.5%	-5	-2.1	23	15%	13	-12
Cc1c(O)c(=O)ccn1Cc1ccccc1	0.6%	-9	-0.5	-6	-2%&-14%	·	1
O=C(Cn1nc(-c2cccc(Cl)c2)ccc1=O)NCC1COCCO1 (stereo unspecified)	0.0%	5	-0.3	-2	·	5	2
Cc1cc(N2CCOCC2)ccc1/C=C1\NC(=O)N(Cc2ccccc2)C1=O	7.1%	-6	5.4	0	4%	·	6
O=C(NCC(=O)N(Cc1ccc(F)cc1)C(C(=O)NCC1CCCO1)c1ccccc1)c1ccco1 (stereo unspecified)	-3.0%	-2	0.8	17	16%	-26	-4
O=C(COC(=O)c1cc(=O)[nH]c2ccccc12)Nc1ccc(Cl)cn1	-0.5%	4	-1.4	-22	·	8	2
O=C(COC(=O)CNC(=O)c1ccc(Cl)cc1Cl)NNC(=O)c1ccccc1	-0.6%	0	6.3	3	·	5	-8
CCN(CC)CCCNC(=O)c1ccccc1C	0.8%[38.3 µM]	-4	1.0	1	4%	17	5
CCOC(=O)c1c(NC(=O)CN2CCOCC2)sc2c1CCCC2	0.6%	0	-2.1	-14	?	-11	0
C/C(=C\c1ccccc1)C1NC(=O)c2c(sc3c2CCCC3)N1 (stereo unspecified)	4.3%	-7	-7.8	2	-9%	·	-8
COc1ccc(COCC(O)CN(Cc2ccco2)Cc2ccccc2O)cc1 (stereo unspecified)	2.1%	-15	-0.8	-10	11%	-2	-13
CCOC(=O)c1sc(NC(=O)c2ccco2)nc1C	15%	6	-7.6	10	25%	-11	-11
CCOC(=O)Cc1csc(NC(=O)CSc2nnc(-c3ccncc3)o2)n1	3.3%	5	-3.0	12	26%	-23	6
C=CCn1nnnc1SCC(=O)Nc1cccc(C(F)(F)F)c1	-0.1%	-5	-1.4	0	4%	9	25
Cc1cc2c(OCC(O)CN3CCCCC3)cccc2[nH]1 (stereo unspecified)	2.4%	-7	3.0	-6	25%	0	-3
COc1ccc(C(=O)N/C(=C/c2cccnc2)C(=O)N2CCOCC2)cc1OC	-0.1%	-13	-1.1	0	17%	7	?
COc1ccc(-c2c(C)nn3c(C)cc(C)nc23)cc1	-0.9%	3	1.6	0	-2%	9	-7
Cc1cc(C)n(-c2ccc(NC(=O)C3CCCCN3Cc3cccc4c3OCO4)cc2)n1 (stereo unspecified)	6.8%	10	-0.6	-9	3%	-1	18
O=C(Oc1ccc2cccc(OC(=O)N3CCOCC3)c2c1)N1CCOCC1	0.0%	-8	0.7	-3	13%	3	-3
O=C(NCCN1CCOCC1)c1ccc(N2CCCC2)c([N+](=O)[O-])c1	-0.3%	-5	-4.2	0	-3%	-13	0
CC(=O)N1N=C(c2ccccc2)CC1c1cccc([N+](=O)[O-])c1 (stereo unspecified)	1.1%	-19	-10	-7	5%	2	7
Cc1nn(CC(=O)NCc2cccs2)c(=O)c2nn(-c3ccccc3)c(C)c12	-0.1%	-7	1.0	-5	-2%	2	?
CN(C(=O)COc1ccc(Cl)cc1)C1(C)CCS(=O)(=O)C1 (stereo unspecified)	2.6%	-3	2.0	-1	·	5	-12
O=C(NCc1ccco1)c1ccc(-c2ccc3nccn3c2)cc1	0.5%	-11	1.2	-5	·	-9	·
CCOC(=O)N1CCC(NC(=O)c2ccc(N3CCC4(CC3)OCCO4)c([N+](=O)[O-])c2)CC1	0.9%	-2	-5.0	-1	19%	0	6
COc1ccc(CCN2C(=S)N(C)C(=O)C2CC(=O)Nc2ccc(OC)cc2)cc1 (stereo unspecified)	-1.3%	-8	1.8	-3	12%	1	10
CC(Sc1ccsc1[N+](=O)[O-])C(=O)NCc1ccco1 (stereo unspecified)	0.6%	-6	-5.2	-1	50µM*	·	28

In the list so far, three contain a CF3 group.
SMILES	PINK1 modulator	D2 potentiator	D2 ag	Six1-Eya2 blk	Sfp PPTase inh	CtBP-E1A inh	TRPV1 potentiator
Cc1ccc2oc3nc(C)c(C(=O)Nc4cccc(C(F)(F)F)c4)cc3c(=O)c2c1	6.9%	-8	-2.3	1	7%	-9	-6
CCCN(CC(=O)Nc1ccccc1C)C(=O)C1CCN(S(=O)(=O)c2ccccc2C(F)(F)F)CC1	0.2%	-8	0.3	-2	·	-4	29
C=CCn1nnnc1SCC(=O)Nc1cccc(C(F)(F)F)c1	-0.1%	-5	-1.4	0	4%	9	25

New compounds follow:
SMILES	PINK1 modulator	D2 potentiator	D2 ag	Six1-Eya2 blk	Sfp PPTase inh	CtBP-E1A inh	TRPV1 potentiator
CC(=O)Nc1ccc(S(=O)(=O)NNC(=O)c2cccc3ccccc23)cc1	-1.4%	16	-1.7	0	5%	0	1
Cc1ccccc1-n1ncc(C(C)NS(=O)(=O)c2ccccc2Cl)c1C (stereo unspecified)	0.9%	-19	-6.7	3	19%	15	11
CCOCCCNC(=O)C(c1ccccc1)N(Cc1cccs1)C(=O)c1ccccc1O (stereo unspecified)	-1.2%	4	14	17	6%	0	-1
CC(C)(C)C(=O)Nc1cccc(C(=O)c2cccc(NC(=O)C(C)(C)C)c2)c1	1.5%	0	-1.2	-1	6%	1	-2
Cc1cc(C)cc(N2C(=O)CC(N3CCOCC3)C2=O)c1 (stereo unspecified)	1.0%[38.3 µM]	-7	-1.2	7	14%	-2	-27
CCOC(=O)C(=O)N(C)c1c(CC)nc2c(OCc3ccccc3)cccn12	0.3%	-6	-3.9	6	·	3	·
